Ba CapD inh – blocks the Bacillus anthracis CapD enzyme; z-score (test concentration not listed); 140,000 tested, 0.23% active; purified CapD enzyme, fluorescence intensity read-out; hits give low values; some hits fall short of the stated cut; AID 492967;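 active = z-score under -4 in either of two replicates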;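 note: stock transfer was 100 nL into about 40 µL; score is relative to mean and spread of the plate; one replicate is shown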
AID504770 – growth inhibitors of E. coli YBA685 in a screen for V. cholerae RctB (chromosome II replication) inhibitors | z-score (concentration not given with the values) | AID 504770 | E. coli YBA685 rctB-dependent plasmid, OD600 growth, 3 h; hits give low values | 130,000 tested, 0.27% active;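 active = z-score under -2 on both plates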;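 note: wells of about 30 µL received 100 nL stock; score is relative to mean and SD of the test wells; the first replicate is given; strong numbers were not always called active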
Starred values were filed as active, the others as inactive; / = not tested or not shown.

The line under a structure holds: Ba CapD inh | AID504770
> O=C(Nc1ccccc1O)c1sc2ccccc2c1Cl
→ -0.53 | 1.4
> O=C(c1c[nH]c(-c2nc3ccccc3[nH]2)c1)c1ccccc1O
→ / | -0.3
> CCCCN1C(=O)C2(/C(=C(/O)c3ccc(OCC)cc3)C(=O)C(=O)N2CCOC)c2ccccc21 (centres undefined)
→ -0.41 | 1.6
> COc1ccc(/C(=C/Nc2ccc(Oc3ccccc3)cc2)C(C)=O)cc1OC
→ -0.7 | /
> COC(=O)c1cc(OC)c(OC)cc1NC(=O)c1ccc2c(=O)n3c(nc2c1)CCCCC3
→ / | -1.1
> c1coc(-c2nccs2)c1
→ 2 | 0.6
> COc1ccccc1-n1c(C)nc2cc(C(=O)NCc3ccc4c(c3)OCO4)ccc21
→ -0.62 | /
> CN1C(=O)COc2ccc(C(=O)c3ccccc3C(=O)O)cc21
→ -0.69 | -0.55
> Cc1ccc(CNC(=O)c2ccc3c(c2)n(C)c(=O)c(=O)n3C)cc1
→ 27 | -0.8
> O=C(CCS(=O)(=O)Cc1ccccc1)Nc1cccnc1
→ / | 0.65
> CC(C)CC(NC(N)=O)C(=O)NCc1ccccc1Cl (centres undefined)
→ / | -0.25
> CCOc1ccc(N(CC(=O)Nc2cc(OC)ccc2OC)S(=O)(=O)c2ccc(Cl)cc2)cc1
→ -0.39 | /
> C=CCN1C(=O)C(CC(=O)Nc2ccc(C)cc2)SC1=Nc1cccc(O)c1 (centres undefined)
→ 0.055 | -0.35
> CCCCC1(C(=O)OC)NC(c2ccc(O)cc2)C2C(=O)N(c3ccccc3)C(=O)C21 (centres undefined)
→ / | 0.6
> CCN1CCN(C(c2cccs2)C(C)NC(=O)c2cccc(OC)c2)CC1 (centres undefined)
→ -0.05 | -0.25
> COc1ccc(C2SCC(=O)N2CCN2CCCCC2)cc1OC (centres undefined)
→ 0.12 | 0.85
> O=C1/C(=C/Nc2cccc(C(F)(F)F)c2)C(c2ccccc2)c2cccc(F)c21 (centres undefined)
→ 0.29 | /
> CCOC(=O)c1ccc2c(c1)[C@@H]1C=CC[C@@H]1[C@H](c1cccnc1)N2
→ 0.03 | 0.55
> CCCCN(C)CCNC(=O)c1ccc(Cn2c(=S)[nH]c3ccc(Br)cc3c2=O)cc1
→ 0.15 | /
> O=C(Nc1ccc(-c2cn3ccsc3n2)cc1)c1ccc2c(=O)n3c(nc2c1)CCCCC3
→ / | 1.9
> O=C(O)/C=C/C(=O)N1CCCC1C(=O)Nc1ccc2ccccc2c1 (centres undefined)
→ -1.3 | /
> CSc1cccc(NC(=O)CSc2nc3ccncc3[nH]2)c1
→ 0.18 | -0.2
> O=C(NNC(=O)c1cccs1)OCCc1cccc(Cl)c1
→ 0.11 | /
> Cc1c(C(=O)NC(C)CCc2ccccc2)oc2c1C(=O)CCC2 (centres undefined)
→ -0.3 | -0.4
> CC1(C)Cc2cccc(C(=O)Nc3ccc(F)cc3F)c2O1
→ 0.46 | 0.35
> C=CCn1c(SCc2ccc3c(c2)OCO3)nc2sc(C)c(C)c2c1=O
→ -0.34 | /
> CCOC(=O)/C(C#N)=C\c1cccn1C
→ / | -0.85
> COc1cccc(OCC(=O)Nc2ccncc2)c1
→ -0.05 | 1.9
> Cc1cc(O)c(C=Nc2ccc(I)cc2)c(=O)o1
→ 0.18 | 0.65
> CCOc1cc(/C=C/C(=O)O)ccc1OCc1ccccc1
→ 4.1 | -0.6

An excerpt of these results, in CSV form.
smiles,Ba CapD inh,AID504770
COc1ccc(C2SCC(=O)N2CCN2CCCCC2)cc1OC (centres undefined),0.12,0.85
O=C1/C(=C/Nc2cccc(C(F)(F)F)c2)C(c2ccccc2)c2cccc(F)c21 (centres undefined),0.29,/
CCOC(=O)c1ccc2c(c1)[C@@H]1C=CC[C@@H]1[C@H](c1cccnc1)N2,0.03,0.55
CCCCN(C)CCNC(=O)c1ccc(Cn2c(=S)[nH]c3ccc(Br)cc3c2=O)cc1,0.15,/

Profiles as entered above.
`COc1ccc(/C(=C/Nc2ccc(Oc3ccccc3)cc2)C(C)=O)cc1OC` is listed as Ba CapD inh: -0.7; AID504770: /
`O=C(Nc1ccc(-c2cn3ccsc3n2)cc1)c1ccc2c(=O)n3c(nc2c1)CCCCC3` is listed as Ba CapD inh: /; AID504770: 1.9
`C=CCN1C(=O)C(CC(=O)Nc2ccc(C)cc2)SC1=Nc1cccc(O)c1` (centres undefined) is listed as Ba CapD inh: 0.055; AID504770: -0.35

(list continues)
The line under a structure holds: Ba CapD inh | AID504770
> Cc1ccc(S(=O)(=O)c2cnc(-c3ccccc3)nc2N2CCCCC2)cc1
→ -0.41 | /
> COc1ccc(/C=N/NC(=O)C2C(c3ccccc3)C(C(=O)N3CCOCC3)C2c2ccccc2)cc1OC (centres undefined)
→ 0.03 | /
> O=C(CSC(=S)NNc1ccccc1)c1ccc(Cl)cc1
→ -0.085 | /
> Cc1ccc(C)n1CC1CCCO1 (centres undefined)
→ -0.4 | -0.95
> O=c1[nH]c2cc(Cl)ccc2c(-c2ccccc2)c1SC1=NCCS1
→ 0.48 | 0.45
> CC(C)(CNC(=O)c1ccccc1Sc1ccccc1C#N)N1CCOCC1
→ / | -0.35
> COC(=O)c1c(N)sc2c1CCCCC2
→ 0.42 | -0.4
> CN1c2ccsc2/C(=N/NC(=O)c2c(F)cccc2F)CS1(=O)=O
→ -1.1 | /
> Cc1ccc(CN(C)c2nc(-c3cccnc3)nc3sc4c(c23)CCCC4)o1
→ / | 0.05
> COC(=O)C(CCSc1cc(Cl)nc(Cl)c1)NC(=O)OC(C)(C)C (centres undefined)
→ -0.69 | /
> CSc1nnc(-c2csc(C)n2)n1-c1cccc(F)c1
→ 0.38 | -0.5
> N#C/C(=C\c1ccc(Sc2nc3ccccc3[nH]2)o1)c1ccccc1
→ 0.12 | -0.65
> O=S(=O)(c1ccc(F)cc1F)N1CCN(c2ncc(C(F)(F)F)cc2Cl)CC1
→ -0.67 | /
> Cc1ccc(N2CCN(C(=S)c3ccc(N(C)C)cc3)CC2)cc1
→ -0.54 | 0.1
> O=C(NCCN1CCN(c2ccccc2F)CC1)C1CCCN(S(=O)(=O)c2cnc[nH]2)C1 (centres undefined)
→ 2.1 | -0.25
> COc1ccccc1Nc1nc2ccccc2n1C
→ -0.09 | -0.8
> CCOc1ccc(N2C(=O)c3ccccc3NC2c2cccc(Br)c2)cc1 (centres undefined)
→ 6.9 | /
> COc1cc(Sc2ccc(Cl)cc2)ccc1[N+](=O)[O-]
→ -0.67 | /
> Cn1cc(C(=O)O)c2ccccc21
→ -0.46 | 2.2
> N#CCC(=O)NN=C1CCCCC1
→ 0.57 | /
> CCc1nn(CC(=O)NCCCN2CCC(Cc3ccccc3)CC2)c(=O)c2cc3occc3n12
→ -1 | -0.65
> COc1ccc(Cn2c(SCC#N)nc3ccc(N4CCOCC4)cc3c2=O)cc1
→ -0.93 | 0.4
> COc1ccc(CNC(=O)CC2CCCCC2)cc1
→ -0.87 | 2.6
> O=C(COc1ccc(Br)cc1)Nc1cc(-c2nc3ncccc3o2)ccc1Cl
→ 0.26 | /
> COc1ccccc1CCNC(=O)c1nccnc1C(=O)O
→ 0.05 | -0.5
> CC1(C)CC(=O)C/C(=N\Nc2n[nH]c(=O)[nH]c2=O)C1
→ / | -3.3
> COc1cccc2ccc(Cl)nc12
→ -0.56 | -1.1
> Cc1cc(C)c2c(c1)OCN(Cc1ccc(Cl)cc1)C2
→ 0.015 | 1.5
> Oc1ccccc1CNCC1CCCO1 (centres undefined)
→ 0.62 | 1.5
> Cc1ccc2nc(Nc3nccc(C)n3)nc(C)c2c1
→ 26 | 0.1
> COc1cccc(N=Cc2c(O)n(Cc3ccco3)c(=O)[nH]c2=O)c1
→ / | 0.85
> O=C1NCCCCC1NS(=O)(=O)c1cccs1 (centres undefined)
→ -0.39 | 0.95
> NC(=O)c1ccc(Oc2ccc(Cl)cc2)nc1
→ 0.4 | -0.6
> CSc1ccccc1NC(=O)CN(C)CC(=O)N1CCN(C(=O)c2ccco2)CC1
→ / | -0.2
> Oc1ccc(N=Cc2ccccc2O)cc1
→ / | 1.4
> CCn1c(C)[n+](CC)c2ccc(S(=O)(=O)N3CCCCC3)cc21
→ 0.005 | -0.7
> c1ccc(-c2nc3c4c(-c5ccccc5)c(-c5ccccc5)oc4ncn3n2)cc1
→ 5 | /
> CC1(C)Cc2c(c(-c3ccco3)nc3sc4c(NC5CCCCC5)ncnc4c23)CO1
→ 8.3 | -0.65
> CN(C)CCCNS(=O)(=O)c1cc(C(F)(F)F)cc(C(F)(F)F)c1
→ 0.2 | /
> O=C(Cc1cccc2ccccc12)NCCN1CCOCC1
→ -0.3 | -0.85
> O=C1C=C(c2ccccc2)OC(c2ccccc2)O1 (centres undefined)
→ / | -0.45
> CCOc1ccc(C(=O)OC2CC3CCC(C2)N3C)cc1 (centres undefined)
→ -0.075 | -0.6
> CC(C)NC(=O)N1CCN(c2ccc(C(F)(F)F)cc2[N+](=O)[O-])CC1
→ -0.4 | /
> Cc1ccc(Nc2c(F)c(F)c(F)c(F)c2C(=O)O)c(C)c1
→ -0.88 | 1.1
> CCN(c1ccccc1)S(=O)(=O)c1ccc(N(C)Cc2cccs2)nc1
→ / | -0.9
> CC(=O)Nc1cc(Cl)ccc1C(=O)O
→ -1 | /
> O=C(Nc1ccc2nc(-c3ccccn3)[nH]c2c1)C1CCCCC1
→ 2.5 | -0.8
> O=C1CSC(c2cn(-c3ccccc3)nc2-c2cc3ccccc3oc2=O)N1CC1CCCO1 (centres undefined)
→ 4.9 | /
> CCOc1ccccc1C1CC(=O)C2=C(C1)Nc1ccccc1N(C(C)=O)C2c1ccc(OC)cc1 (centres undefined)
→ 37 | /
> Cc1cccc(C(=O)NNC(=O)OCC#Cc2ccccc2)c1O
→ 1.5 | /
> C#CCO/N=C1/CCCc2nonc21
→ 0.22 | -0.5
> CCOC(=O)C(Cc1ccc(O)cc1)NC1=CC(=O)C(=O)c2ccccc21 (centres undefined)
→ 1.2 | /
> CCOC(=O)c1cn(C)c2ccccc2c1=O
→ / | 1.9
> Cc1cccc(C2(c3cccc(C)c3)CC2C(=O)Nc2ccc(Cl)c(Cl)c2)c1 (centres undefined)
→ -0.18 | /
> CSc1nc(NS(=O)(=O)c2cc(Cl)sc2Cl)nn1C
→ 0.6 | -0.4
> O=C(O)c1ccc(-n2nnnc2SCc2ccccc2F)cc1
→ -0.13 | -0.65
> O=C(Nc1ccc(Cl)cc1)c1c[nH]n2c(=O)cc(C3CCNCC3)nc12
→ -0.1 | 1.6
> COC(=O)c1ccc(CSc2nc3ccccc3c(=O)n2C(C)c2ccccc2)o1 (centres undefined)
→ / | -0.55
> O=C(NCCc1ccccc1)c1cccc2cc[nH]c12
→ 2.5 | /
> N#Cc1c(N)nc(SCC(=O)NCc2ccccc2)c(C#N)c1-c1ccc(F)cc1
→ -0.2 | /

Next part:
The line under a structure holds: Ba CapD inh | AID504770
> Cc1cc(=O)oc2cc(OCC(=O)c3ccccc3F)ccc12
→ 0.97 | 1.5
> CC(=O)OCC(=O)[C@@]12OC(C)(C)O[C@@H]1C[C@H]1[C@@H]3C[C@H](F)C4=CC(=O)C=C[C@]4(C)[C@@]3(F)[C@@H](O)C[C@@]12C
→ -0.24 | /
> COC(=O)c1ccc(NS(=O)(=O)c2ccc3c(c2)CC(C)N3C(=O)C2CCC2)cc1 (centres undefined)
→ -2.5 | -0.65
> CC(C)c1cc(C(C)C)c(S(=O)(=O)NCCC(=O)O)c(C(C)C)c1
→ -0.03 | 0.4
> O=C(c1ccc(N2CCOCC2)nc1)N1CCN(C(c2ccccc2)c2ccccc2)CC1
→ 2.1 | -0.2
> CN(CC(=O)NC1CCCCCCC1)S(=O)(=O)c1ccc2[nH]c(=O)oc2c1
→ 1.2 | -0.65
> CCCCN1C(=O)CN(CCc2ccccc2)C(=O)C1c1ccc(OC)cc1 (centres undefined)
→ -0.83 | -1.2
> CCOc1ccccc1COC(=O)Cc1coc2cc(O)ccc12
→ / | -0.3
> CN(C)C(=O)N1CCC(c2nc(-c3ccc(S(C)(=O)=O)cc3)no2)CC1
→ -0.31 | /
> COc1cc(/C=C2/C(=O)N(c3ccccc3)N=C2C)ccc1OS(=O)(=O)c1ccc(C)cc1
→ -0.51 | /
> NCCCN1CCN(c2ccccc2)CC1
→ 0.26 | -1.3
> OCCCNC(c1ccccc1)c1ccc(O)cc1 (centres undefined)
→ / | 0.75
> Cc1cc(Cl)ccc1OC(C)C(=O)NCCCn1ccnc1 (centres undefined)
→ 0.17 | -0.55
> Cc1nc2ccccc2nc1SCC(=O)c1ccccc1
→ 0.9 | 0.05
> Cc1cccn2cc(CNS(=O)(=O)c3cccc(F)c3)nc12
→ -0.17 | -0.9
> COc1cc2c(cc1OC)C(C(=O)NCc1ccc3c(c1)OCO3)C1c3ccccc3CCN1C2=O (centres undefined)
→ 0.64 | -0.3
> CCc1nnc(NC(=O)CSC2=NCCS2)s1
→ 0.68 | -0.6
> CCOC(=O)c1cnc2ccc(OCC)cc2c1NCCCN1CCOCC1
→ 11 | -0.2
> Cc1ccccc1Nc1cccc2nonc12
→ -0.33 | 1
> COCCN(CCOC)c1ncnc2c1c(-c1ccccc1)cn2-c1ccc(Br)cc1
→ 2 | /
> CCC(C)(C(=O)NC1CCCC1)N(C)C(=O)c1ccc2c(c1)OCO2 (centres undefined)
→ -1 | 0.2
> O=c1[nH]c2cc(Cl)ccc2n(Cc2ccccc2)c1=O
→ 4.3 | -0.1
> COc1ccc(NC(=O)CC2SC(=O)NC2=O)cc1 (centres undefined)
→ 0.12 | /
> O=C(CSc1nnc(COc2ccccc2)o1)NCc1ccccc1
→ 0.23 | 0.1
> Cn1nc(NC(=O)C2CCC2C(=O)O)c2ccccc21 (centres undefined)
→ 0.55 | 0.05
> Cc1[nH]c2ccccc2c(=O)c1CN1CCCCCC1
→ -0.15 | -0.45
